hNpr1 antagonist – human Npr1 receptor antagonism. P16066. HEK293 hNpr1 GloSensor cGMP, ANP-stimulated luminescence. Potency, µM (highest dose often 46.3 µM), for the others: at the highest dose activity change, negative = inhibition, hits mostly inhibitors. actives 1.6% (n = 76,000). AID 1347048; active = well fitted inhibition curve with a large enough effect; inconclusive = small, poorly fitted or top-dose-only effect; inactive = no such curve, though single readings can be large or run the other way;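 further: nearly all actives have a fitted effect of over 60% in size; nearly all hits also lower the signal before the agonist is added; a reference antagonist and vehicle were the controls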
Target sequence (P16066 whole entry, looked up): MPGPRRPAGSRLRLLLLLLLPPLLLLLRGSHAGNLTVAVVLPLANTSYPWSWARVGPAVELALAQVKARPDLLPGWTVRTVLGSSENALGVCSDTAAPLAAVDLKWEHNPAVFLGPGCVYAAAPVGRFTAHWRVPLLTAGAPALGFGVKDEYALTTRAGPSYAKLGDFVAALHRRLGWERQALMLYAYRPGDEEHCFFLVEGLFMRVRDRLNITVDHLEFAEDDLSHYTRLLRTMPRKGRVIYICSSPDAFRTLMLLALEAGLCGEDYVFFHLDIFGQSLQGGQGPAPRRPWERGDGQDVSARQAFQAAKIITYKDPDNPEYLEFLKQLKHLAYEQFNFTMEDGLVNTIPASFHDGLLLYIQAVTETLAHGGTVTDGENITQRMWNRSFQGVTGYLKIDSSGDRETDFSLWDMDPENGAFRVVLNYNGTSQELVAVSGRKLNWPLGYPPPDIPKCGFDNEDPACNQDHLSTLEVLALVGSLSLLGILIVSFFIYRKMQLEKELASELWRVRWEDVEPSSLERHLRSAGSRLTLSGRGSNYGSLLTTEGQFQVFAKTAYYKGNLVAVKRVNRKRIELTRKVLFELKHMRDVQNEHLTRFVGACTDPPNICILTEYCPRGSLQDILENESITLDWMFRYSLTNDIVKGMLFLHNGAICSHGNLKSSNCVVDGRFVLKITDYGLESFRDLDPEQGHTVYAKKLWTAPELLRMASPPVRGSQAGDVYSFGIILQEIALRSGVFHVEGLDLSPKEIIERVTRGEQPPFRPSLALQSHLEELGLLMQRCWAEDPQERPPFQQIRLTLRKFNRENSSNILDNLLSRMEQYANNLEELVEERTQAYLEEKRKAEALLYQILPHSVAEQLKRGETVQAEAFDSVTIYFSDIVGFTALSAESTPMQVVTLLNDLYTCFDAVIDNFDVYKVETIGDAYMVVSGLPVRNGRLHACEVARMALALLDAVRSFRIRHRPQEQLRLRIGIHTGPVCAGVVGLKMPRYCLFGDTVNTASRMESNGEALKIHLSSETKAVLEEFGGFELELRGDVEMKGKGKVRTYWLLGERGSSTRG
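HEK293 cells stably expressing human Npr1 and cGMP GloSensor pGS-40F, loaded 2 h with 2% GloSensor reagent, given compound 30 min at room temperature. Luminescence read before and 20 min after 0.1 nM hNppA.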
An asterisk follows results filed as active; ? = inconclusive; [ ] = remark or other dose. On the % scale 0 is the no-effect control and ±100 the full control effect; potency means the concentration at half of the fitted maximal effect. Not all compounds are listed (hit frequency here may not be typical).

Molecule	hNpr1 antagonist
COCCN1CCOC2(CCN([S+](=O)([O-])c3ccc(F)cc3F)CC2)C1=O	-8%[70.6 µM]
Cn1cc(C(=O)NCCc2noc(C3CC3)n2)cn1	-3%
COc1ccc(C2Cn3nnc(C(=O)N4CCC(C(=O)NC5CCC(C)CC5)CC4)c3CO2)cc1 (stereo not drawn)	-1%
CCCC1c2nccn2CCCN1C(=O)c1ccncc1F (stereo not drawn)	2%
CN(C)C(=O)c1ccc(-c2cnc3[nH]cc(CC(=O)N4CCOCC4)c3c2)cc1	-2%[70.6 µM]
CCOc1ccccc1C(=O)N1CCC(c2n[nH]c(=O)n2-c2ccc(C)cc2)CC1	-3%
COC(=O)[C@H](Cc1ccc(OC)cc1)NC(=O)[C@H]1CN(S(=O)(=O)c2ccccc2)CCN1C(=O)c1cccs1	3%
CC1Oc2ccc(NC(=O)COc3ccccc3)cc2CN(Cc2ccccc2)C1=O (stereo not drawn)	?
COc1ccc2nc(CNC(=O)C3CCN(C(=O)C4CCC4)CC3)[nH]c2c1	7%
Cc1ccccc1CNC(=O)CCC[C@@H]1[C@H]2CCCN3CCC[C@@H](CN1Cc1cccnc1)[C@@H]23	1%
COCCN1C(=O)CS(=O)(=O)C12CCN(C(=O)c1ccccc1C)CC2	2%
O=C(CN1C(=O)C(c2ccccc2)=NC12CCCCC2)N1CCN(c2ccccc2)CC1	0%
Cn1cnc(S(=O)(=O)NC2CCc3nn(CC4CC4)c(=O)n3CC2)c1 (stereo not drawn)	0%
Cc1cc2c(c(=O)n(-c3ccccc3)c(=O)n2CC(=O)Nc2cccc(C#N)c2)n1C	-2%
Cc1c(-c2cc(C(=O)N3CC[C@](C)(O)[C@@H](O)C3)no2)cnn1C	9%
CC(=O)N1CCC(N[C@@H]2C[C@H](Cn3cc(-c4cccnc4)nn3)[C@@H](O)[C@H]2O)CC1	3%
CCOc1cccn2c(=O)c(-c3cc(C)n(-c4ccc(Cl)cc4)n3)c(C)nc12	-1%
CCN1c2cc(C(=O)Nc3cccc(Cl)c3)ccc2C(=O)N2CCCCCC21 (stereo not drawn)	-2%
O=C(Cn1ccn2nc3c(c2c1=O)CCCC3)Nc1ccc2c(c1)OCCO2	6%
O=C(Cn1nc2c(cc1=O)CCCCC2)N1CCN(Cc2ccccc2Cl)CC1	4%
O=C(c1cc(F)ccc1F)N1CC(c2nnc(-c3ccncc3)o2)C2(CCOCC2)C1 (stereo not drawn)	1%
CN(C)CC1(O)CCCN(C(=O)c2ccccc2-c2ncc[nH]2)CC1 (stereo not drawn)	1%
COC(=O)[C@@H]1Cc2ncn(Cc3ccc(Cl)cc3)c2CN1Cc1cccs1	?
CC(=O)Nc1ccc(CN2C(=O)OC3(CCN(Cc4ccccc4)CC3)C2(C)c2ccccc2)cc1 (stereo not drawn)	-13%
O=C(c1cnc(C23CC4CC(CC(C4)C2)C3)[nH]c1=O)N1C[C@H]2CNC[C@H]2C1	-3%

Reprinted from the part before: 3 entries, then new ones.
Molecule	hNpr1 antagonist
COC(=O)[C@@H]1Cc2ncn(Cc3ccc(Cl)cc3)c2CN1Cc1cccs1	?
CC(=O)Nc1ccc(CN2C(=O)OC3(CCN(Cc4ccccc4)CC3)C2(C)c2ccccc2)cc1 (stereo not drawn)	-13%
O=C(c1cnc(C23CC4CC(CC(C4)C2)C3)[nH]c1=O)N1C[C@H]2CNC[C@H]2C1	-3%
Cn1nc2n(c1=O)CCN(S(=O)(=O)c1ccccc1C(F)(F)F)CC2	-1%
CCc1noc(-c2cn(C3CCN(C(=O)c4cccc(OC)c4)CC3)nn2)n1	-11%
Cc1cc(S(=O)(=O)N2CCN(C3CCN(CCc4ccccc4)C3=O)CC2)ccc1F (stereo not drawn)	3%
COCC(=O)NC[C@H]1CCN(S(C)(=O)=O)C[C@H]1N(C)C	8%
CCCc1nnc([C@H]2CCN(C3CCN(C(C)=O)CC3)C2)o1	8%[70.6 µM]
Cc1nc(C(=O)N2C[C@@H](COCC3CC3)[C@H](c3ccncc3)C2)co1	0%
CN1CCCn2nc(C(=O)N(C)Cc3cc(-c4cccs4)n[nH]3)cc2C1	-1%
CCC(=O)N1CCc2nn(Cc3ccccc3)c(=O)n2CC1	-1%
CCc1cc(N2CCC(N3CCSCC3)CC2)n2nccc2n1	-2%
OCC1(CC2CC2)CCCN(Cc2noc(C3CC3)n2)C1 (stereo not drawn)	3%
Cc1ccc(SCCNC(=O)C2CCC(=O)N(C3CCCC3)C2)cc1 (stereo not drawn)	-2%
Cc1ccc(NC(=O)O[C@@H]2CC[C@]3(C)[C@H](CC[C@H]4OC(=O)C[C@H]43)[C@]2(C)CO)cc1	?
O=C1NC2(CCN(C(=O)c3ccccc3)C2)OCc2ccccc21 (stereo not drawn)	18%[70.6 µM]
Cc1ccccc1CN1Cc2nc(OCc3cccnc3)ccc2OCC1=O	?
COC(=O)[C@@H]1Cc2ncn(Cc3ccc(Cl)cc3)c2CN1S(=O)(=O)c1ccc(C(C)=O)cc1	1%
Cc1cc(C)cc(C(=O)NCCn2ccn3nc(-c4ccc(F)cc4)cc3c2=O)c1	-24%
COc1ccc(-c2nc(-c3c(C)noc3C)cc3[nH]c(C)cc23)cn1	8%[70.6 µM]
COc1ccc(F)cc1C(=O)NCc1cc2n(n1)CCN(C(=O)N(C)C)C2	0%
CN1Cc2cccn2CC1CNC(=O)c1ccco1 (stereo not drawn)	-9%
Cc1nonc1CC(=O)N1CCC(c2nnc(Cn3cccn3)n2C)CC1	8%
C[C@H]1[C@@H]2[C@@H](O)[C@H]([C@H](C)C(=O)N3CCCC3)CC[C@@]2(C)CC[C@@H]1NC(=O)c1cncnc1	0%[70.6 µM]
CCn1ccc(C(=O)N2CCC(N3C[C@H](O)C[C@H]3C(=O)NCc3cccnc3)CC2)n1	1%
N#Cc1ccccc1S(=O)(=O)N[C@H]1CO[C@H]2[C@@H]1OC[C@@H]2n1nnnc1Oc1ccc(-n2ccnc2)cc1	0%
CN1CCC2(C1)CN(CC1CC1)c1ccc(C(=O)Nc3ccccc3)cc12 (stereo not drawn)	-1%[70.6 µM]
O=C1CO[C@H]2CN(Cc3c[nH]c4ccccc34)C[C@H]2N1	-9%[70.6 µM]
CC1(C(=O)N2CCC(N3CCCC(C(=O)NCc4ccccc4)C3)CC2)CC1 (stereo not drawn)	2%
COc1ccc(CN[C@@H]2CCC[C@@H](C(=O)NCc3cc(C)on3)CC(=O)N(C)C2)cn1	0%[70.6 µM]
CCC(C)NC(=O)C1COC2(CCN(C(=O)Cc3ccccc3)CC2)N1C(=O)c1cccc(C)c1 (stereo not drawn)	0%
Cc1ccc(NC(=O)N2CCCCCCNC(=O)[C@@H]3CCCC[C@@H]32)cc1C	1%
COc1cccc(-c2noc(CC3CCN(C(=O)COc4cccc(C)c4)CC3)n2)c1	20µM*
COCCN1CCC2(CCC1=O)CCN(C(=O)NC1CCCCC1)CC2	-16%
O=C(c1cc2n(n1)CC(c1ccc(Cl)cc1)OC2)N1CCN(c2ccccc2)CC1 (stereo not drawn)	20µM*
COCCCNC(=O)N1CCc2nn(CC3CC3)c(=O)n2CC1	10%
O=C(NC1CC1)C1c2ccccc2C(=O)N(C2CCCCC2)C12CCCCC2 (stereo not drawn)	-6%
C[C@@H]1CN(C(=O)Cc2cn3ccsc3n2)CC[C@@]1(O)C1CCOCC1	7%
O=C(Nc1cccc(-c2ccc(N3CCOCC3)nn2)c1)Nc1ccccc1Cl	?
CN1C[C@H]2CN(Cc3cn(C)c4ccccc34)CCN2C1=O	0%[70.6 µM]
O=C(c1cnc(C2CC2)nc1)N1C[C@@H](CN2CCCCCC2)[C@@H](CO)C1	-8%
CN(Cc1ccc(F)cc1)c1ccc2ncc(Nc3ccc4c(c3)OCO4)n2n1	?
COCCC1(NC(=O)c2ccccc2)CCN(S(=O)(=O)c2ccc(C#N)cc2)CC1	1%
Cc1ccc(CN2CCC3(CC2)COCCN3C(=O)OCc2ccccc2)o1	1%[70.6 µM]
CN1CCN(c2ccc(-c3nccc4c(=O)cc(N5CCOCC5)oc34)cn2)CC1	5%[70.6 µM]
CC(C)(C)C1CCC2(CC1)NC(=O)N(CC(=O)NCCCc1ccccc1)C2=O (stereo not drawn)	-3%
Cc1cc(C(=O)N2CCC(c3nc(C4CCOCC4)no3)CC2)n(C)n1	-2%
CC(=O)c1c(C)nn(CC(=O)N2CCN(c3ccnc(C)c3)CC2)c1C	-2%
Cc1noc2c(-c3ccsc3)cc(-c3cccnc3)nc12	-1%[70.6 µM]
CCS(=O)(=O)Nc1ccc(C2(C(=O)NCc3cccc(C)c3)CCC2)cc1	6%
CNC(=O)[C@@H]1C[C@@H](NC(=O)c2cccs2)CN1C(=O)Cc1cnccn1	0%
O=C(NC1CCN(c2cc(-c3ccc(F)cc3)[nH]n2)C1)c1cccc(Cl)c1 (stereo not drawn)	-16%
Cc1ccc(C(=O)NC[C@H]2O[C@@H](CC(=O)NC3CC3)[C@H](O)[C@@H]2O)cc1	4%[70.6 µM]

The list goes on:
Molecule	hNpr1 antagonist
O=C(CCc1nc2ccc(Cl)cc2[nH]1)N1CC(CO)C2(CCNCC2)C1 (stereo not drawn)	9%
Cc1cc(-c2cc3c(cn2)CN(Cc2ccccc2F)CCN3)ccn1	-16%[70.6 µM]
Cc1nc2c(c(-c3ccc(O)cc3)n1)CN(Cc1ccccc1)CCC2	0%
CCN1c2cc(C(=O)NCc3cccc(OC)c3OC)ccc2C(=O)N2CCCCCC21 (stereo not drawn)	0%
COc1ccc2cc(CN3CCC(CO)CC3)c(-c3ccc(Cl)cc3)nc2c1	-9%
CCc1cccc(-n2ccnc2-c2cc3n(n2)CCNC3)c1	-2%
O=C(C1CCCC1)N1CCCCC1c1nc(C2CC2)n[nH]1 (stereo not drawn)	5%
COC(=O)C1=C(C)N=C2SC=C(CC(=O)NCc3ccccc3)N2C1c1cccc(OC)c1 (stereo not drawn)	-27%
CCCn1c(C)cnc1CCNS(=O)(=O)CCC	2%
O=C(COc1ccc(F)cc1)NCC1Cn2cccc2CN1Cc1ccccc1 (stereo not drawn)	-1%
CCn1ncc(N2CCCC(CC(=O)NCc3ccc(F)cc3)C2)cc1=O (stereo not drawn)	-7%
CS(=O)(=O)N1CCC(C2CCN(C(=O)NCc3ccco3)C2)CC1 (stereo not drawn)	9%
O=C1CCCN1CCCN1C(=O)[C@H]2CN(Cc3ccccc3)C[C@H]2C1=O	2%
CCn1ccc(C(=O)N2CC(Oc3cccc(-c4nc(C)no4)c3)C2)n1	4%
CCS[C@H]1CCN2C(=O)c3ccccc3NC(=O)[C@H]12	-1%[70.6 µM]
C[C@]1(CO)C2CC[C@@H](O)[C@@H](CC(=O)NCc3cccs3)[C@]2(C)CC[C@H]1OC(=O)NC1CCCCC1 (stereo partly drawn)	4%
CCCNC(=O)NCC1(COc2ccc(S(C)(=O)=O)cc2)C[C@@H](O)[C@@H](O)C1 (stereo partly drawn)	-1%[70.6 µM]
CN1CC(=O)N(c2ccc(Cl)cc2)Cc2c(NCC(C)(C)C)ncnc21	11%
CC(C)NC(=O)c1nc(-c2ccsc2)c2cnccn12	-12%[70.6 µM]
Cc1cccc(C(C)C)c1NC(=O)CN1CCC(C(N)=O)(N2CCCCC2)CC1	-2%
O=C(NCc1cccs1)c1nc(-c2cccc(C(F)(F)F)c2)c2ccccn12	3%
Cc1cnc(CCNC(=O)C2(c3ccccc3)CC2)n1C1CCCCCC1	-4%
CCNc1ncc(C(=O)N2CCCC(Nc3ccc(OC)cc3)C2)cn1 (stereo not drawn)	-2%
CN1CCC(Cn2ccc3c(N4CCOCC4)nc(-c4cccc(N5CCOCC5)c4)cc32)CC1	-1%
COC(=O)N1CCc2nc(C3CC3)nc(-c3ccc(Cl)cc3)c2C1	-5%[70.6 µM]
CSCC(=O)N[C@H]1CCN2C(=O)c3cc(-c4ccccc4F)ccc3NC(=O)[C@H]12	-21%[70.6 µM]
O=C(c1ccccc1F)N1CCC(N2CC3CCCN3C2=O)CC1 (stereo not drawn)	3%[70.6 µM]
COc1ccc(C2NC(=O)N(Cc3nc(C4CC4)no3)C3=C2C(=O)OC3)cc1 (stereo not drawn)	4%
CCOc1cc(=O)n2c(c1C(=O)Nc1cc(C)ccc1C)CCCC2	-4%
O=C1CCN(C2CCOCC2)CCCC(c2nc(-c3cccnc3)no2)CCN1 (stereo not drawn)	6%
COc1cc2c(cc1OC)CN(C1CCCN(Cc3c(O)cccc3OC)C1)CC2 (stereo not drawn)	-13%
CS(=O)(=O)N(C1CCOCC1)C1CN(C(=O)c2ccoc2)C1	8%
CS(=O)(=O)c1ccc(CN2CCC[C@H]2c2nc(-c3ccnc(N4CCOCC4)c3)no2)cc1	1%
O=C1[C@@H]2C[C@@H](CN2Cc2ccc(F)c(F)c2)Oc2ccccc2N1Cc1ccccn1	-10%[70.6 µM]

Records listed above marked active in hNpr1 antagonist.
Molecule	hNpr1 antagonist
COc1cccc(-c2noc(CC3CCN(C(=O)COc4cccc(C)c4)CC3)n2)c1	20µM*
O=C(c1cc2n(n1)CC(c1ccc(Cl)cc1)OC2)N1CCN(c2ccccc2)CC1 (stereo not drawn)	20µM*

Screening results (PubChem)
